# Screening data (PubChem BioAssay)
# H5N1 CPE: antiviral screen in MDCK cells, H5N1 avian flu. inhibition, % at 50 µM. AID 740. 96,000 tested, 0.07% active. cytopathic effect, luminescence, 72 h; stronger effect = higher value; no value below 0 was filed and about half of the inactive calls have no number; reference of the scale not given here; in the data active = inhibition above about 25%
# * = called active by the depositor; i = inactive.
SMILES,H5N1 CPE
C=CCNc1ncnc2c1cnn2-c1cccc(C)c1,i
CC(=NCCN1CCCCC1)c1c(O)[nH]c(=O)[nH]c1=O,0.7
COc1ccc(-c2[nH]nc(-c3ccccc3)c2-c2nc3ccccc3[nH]2)cc1,i
CC(C)(C)c1nc2ccccc2c2nnc(SCC(=O)NCc3ccco3)n12,1.8
COc1ccc([N+](=O)[O-])cc1NC1C2CC3CC(C2)CC1C3 (configuration not stated),0.4
COc1ccc([C@H]2[C@H](C(=O)C(C)(C)C)N3N=Cc4ccccc4C3[C@]23N=C(c2ccccc2)OC3=O)cc1 (some centres not stated),i
CCN(CC)CCCNC(=O)c1cc(-c2ccc(O)cc2)on1,i
CC(C)NC(=O)CCCc1ccccc1,i
Cc1cccc(CN(C)C)c1OC(=O)N(C)C,i
O=C1c2ccccc2C(=O)N1CC1=CCS(=O)(=O)C1,0.5
Cc1cccc(N2CC(O)=C(c3nc4ccccc4n3C)C2=N)c1,0.1
Cc1cc(C)n(-c2cc(N3CCOCC3)nc(-c3ccccc3)n2)n1,0.8
CCNC(=O)c1c(O)c2cccc3c2n(c1=O)CC3,0.1
COc1cccc(S(=O)(=O)Nc2ccc3sc(C)nc3c2)c1,1.0
O=C(C1CCCO1)N1CCC(c2nc3ccccc3[nH]2)CC1 (configuration not stated),0.4
Cc1cc2n(n1)C(c1sccc1C)Nc1c(C)cccc1-2 (configuration not stated),i
O=C1/C(=C\c2cccnc2)CCc2ccccc21,i
CCN(CC)CC(=O)NC12CC3CC(CC(C3)C1)C2,i
COc1ccc(CN2CCN(c3ccccc3F)CC2)c(OC)c1,i
O=C(Cn1nnc2ccccc2c1=O)Nc1ccc2c(c1)CCC2,1.8
O=S(=O)(Nc1ccc(-n2cccc2)cc1)c1ccccc1,0.6
COc1cccc(CN2CCN(C(=O)COc3ccc4ccccc4c3)CC2)c1,i
Cc1ccc(C(=O)N/C(=C\c2sccc2C)C(=O)NCc2ccco2)cc1,0.2
Cc1cc(C)c2oc(-c3ccc(C)c(NC(=S)NC(=O)/C=C/c4ccco4)c3)nc2c1,0.3
Cc1c(C(=O)N2CCN(C)CC2)oc2c1C(=O)CC(C)(C)C2,1.5
# Going on with the list:
SMILES,H5N1 CPE
O=C1CC(c2ccco2)CC(O)=C1C=NCC1NCCc2ccccc21 (configuration not stated),2.1
CC(C)c1ccc(NC(=O)COc2nnc(-c3cccs3)c(-c3cccs3)n2)cc1,0.5
CC(NC(=O)c1ccc(N2CCCC2=O)cc1)c1ccccc1 (configuration not stated),0.3
O=CN1CCC(=O)N(Cc2ccccc2)c2ccccc21,1.6
COC(=O)C1=C(C)n2cnnc2NC1c1ccc(Cl)cc1 (configuration not stated),0.9
CCOc1ccccc1NC(=O)CCC(=O)Nc1ccccc1OCC,i
CCCC(C)(C)NC(=O)CCCCC(=O)NC(C)(C)CCC,i
CCc1nc2c(C#N)c(-c3ccc(Cl)cc3)ccn2n1,i
O=C(c1sc2ccccc2c1Cl)N1CCN(c2ccc(F)cc2)CC1,i
CCOC(=O)CNC(=O)CSc1nnc(Cn2cnc3ccccc32)n1C,i
COc1ccc(C(=O)NC(C)c2nnc(SCC(=O)Nc3nc4ccccc4s3)n2C)cc1 (configuration not stated),0.9
CCCSc1nc(-c2ccccc2)cc(C(F)(F)F)c1C#N,i
COc1ccc(NC(=O)CSc2nc(N)c(C#N)cc2C#N)cc1,i
CC(C)C(c1nnnn1Cc1ccc(F)cc1)N1CCSCC1 (configuration not stated),3.8
Cc1cccc(NC(=O)CCN2CCN(C/C=C/c3ccccc3)CC2)c1,i
CCOC(=O)CSc1nnc(-c2ccc(Cl)cc2Cl)o1,i
O=C(NCc1cccs1)c1cnc2sccn2c1=O,2.1
COc1cccc(-n2nnc3c(=O)n(CC(=O)N4CCCCC4)cnc32)c1,0.1
COc1ccc(N2CC(C(=O)Nc3ccc(N4CCOCC4)cc3)CC2=O)cc1 (configuration not stated),0.7
Cc1ccccc1C(=O)N/C(=C/c1ccc(-c2cccnc2Cl)o1)C(=O)NCCCN1CCN(C)CC1,1.8
CCC(=O)Nc1nc(C)nc(C)c1C(C)=O,0.2
CCN1CCCC(NC(=O)c2scc3c2CCCC3)C1 (configuration not stated),i
O=C(c1ccc2c(=O)n(CC3CCCO3)c(=S)[nH]c2c1)N1CCN(c2ccccc2)CC1 (configuration not stated),0.0
Cc1ccc(-c2nnc(-c3ccncc3)n2-c2ccc(C)cc2)cc1,1.6
COC(=O)Cc1c(C)c2ccc(OCc3nn[nH]n3)c(C)c2oc1=O,0.9
# Other results
SMILES,H5N1 CPE
COc1ccc(NC(=O)CCOc2ccccc2)c(OC)c1,i
N#Cc1ccc(N=c2ssnc2Cl)cc1,4.3
O=C(O)c1ccc(S(=O)(=O)NC2CCCc3ccccc32)cc1 (configuration not stated),i
c1cnc(N2CC[N+]3(CCCC3)CC2)nc1,i
CCOC(=O)NC(Nc1cc(C)on1)(C(F)(F)F)C(F)(F)F,i
COc1ccc(CCN(Cc2cc3cc(C)c(C)cc3nc2Cl)C(=O)C2CC2)cc1,i
CCn1c(C)c(C(C)=O)c(NCc2ccccc2)nc1=S,0.6
FC(F)(F)c1cc(-c2ccccc2)nc(N2CCOCC2)n1,0.4
CCc1ccc(-c2nc(CS(=O)CC(=O)NCc3cccnc3)c(C)o2)cc1 (configuration not stated),0.6
CCOc1cc(C2c3c(n[nH]c3C)C(=O)N2c2ccc(C)cc2)ccc1O (configuration not stated),i
Cn1c(=O)c2c(nc(SCC(=O)Nc3ccccc3)n2C)n(C)c1=O,1.0
Cc1ccc2[nH]c(=O)c(C(c3nnnn3CC3CCCO3)N3CCOCC3)cc2c1 (configuration not stated),0.4
COCCCNC(=O)C1CCN(C(=O)c2cc3sccc3n2Cc2ccc(F)cc2)CC1,0.6
COC(=O)CN(c1cc(OC)ccc1OC)S(=O)(=O)c1ccc(OC)c(OC)c1,0.5
Cc1nc(CCNS(=O)(=O)c2cccs2)cs1,i
Cc1cccc2c(=O)n3c(nc12)CCCCC3,i
O=C(CSc1nnnn1-c1ccccc1)Nc1nc(-c2ccccc2)ns1,i
CC1=C(C(=O)NCc2ccccc2)C(c2cccs2)n2ncnc2N1 (configuration not stated),0.1
CCc1ccc(-c2cn3nc(C)c(C)nc3n2)cc1,i
Cc1[nH]nc2c1C(C1CC=CCC1)C(C#N)=C(N)O2 (configuration not stated),i
COc1ccc(C(C)=O)c(Oc2nc(CN3CCOCC3)nc3scc(-c4cccs4)c23)c1,i
Cn1c(SCC(=O)N2CCN(c3cccc(Cl)c3)CC2)nnc1-c1ccncc1,i
CCOC(=O)c1c(C)oc2cc(Br)c(OC(C)C(=O)OCC)cc12 (configuration not stated),1.4
O=C(NC12CC3CC(CC(C3)C1)C2)c1ccc(COc2ccc(Cl)cc2[N+](=O)[O-])o1,8.6
O=C(COC(=O)c1ccc(Br)o1)Nc1cccc(S(=O)(=O)N2CCCCCC2)c1,1.0
# Carrying on:
SMILES,H5N1 CPE
Cc1ccc2c(c1)[nH]c1c(=O)n(CCN3CCNCC3)cnc12,i
O=C(O)CC(c1cccc2ccccc12)n1cccc1 (configuration not stated),0.1
CCc1ccc(NSc2ccccc2[N+](=O)[O-])cc1,i
CCOC(=O)C1=C(C)N(C)C(C)=C(C(=O)OCC)C1c1ccc(C(=O)OC)cc1,2.4
O=C(C1CCCN(Cc2ccccc2Br)C1)N1CCCCC1 (configuration not stated),i
O=C1c2ccccc2NC(c2ccco2)N1O (configuration not stated),0.6
O=S(=O)(Cc1ccccc1)N1CCCC(c2nc(-c3ccc(F)cc3)no2)C1 (configuration not stated),i
COCCn1c(=O)[nH]c2cc(C(=O)NCCc3ccc(OC)c(OC)c3)ccc2c1=O,i
COc1ccc2oc(C)c(C(=O)Cn3ccnc3)c2c1,1.4
COc1ccc(OC)c(-n2cc3c(=O)n(C)c(=O)n(C)c3c2)c1,i
COc1ccccc1NC(=O)CC(NCCN(C)C)C(=O)O (configuration not stated),i
CCN(CC)c1ccc(-n2c(C)cc(C=O)c2C)cc1,i
COCCn1c(=NC(=O)CSC(C)=O)sc2cc(F)ccc21,0.6
Cc1sc(NC(=O)CSc2nnc(-c3ccccc3)o2)c(C#N)c1C,0.6
O=C1c2ccccc2NC(c2ccncc2)N1c1ccccn1 (configuration not stated),1.5
CCOC(=O)c1sc(=S)n(-c2ccccc2Cl)c1SC,0.1
CCOC(=O)c1c(NC(=O)c2ccco2)sc(C(=O)N2CCCC2)c1C,i
CCCc1cc(C(=O)Nc2ccccc2C(=O)OC)no1,i
Cc1[nH]n(-c2ccccc2)c(=O)c1-c1ccc(Cl)cc1,0.1
COc1cc(CNCc2ccc(OC)c(OC)c2OC)cc(OC)c1,0.2
CC(C)OC(=O)CSc1nc2ncccc2[nH]1,i
Cc1ccc(C2C(C#N)=C(N)SC(N)=C2C#N)o1,1.5
CCOC(=O)c1nnc(-c2cccs2)nc1Oc1ccccc1C(=O)OC,1.9
COc1ccc(CCn2c(C)cc3c(c2=O)C(c2ccc4c(c2)OCO4)C(C#N)=C(N)O3)cc1OC (configuration not stated),i
Cn1nc(-c2ccccc2)c(CSc2ccccc2Cl)c1Cl,i
# Next records follow:
SMILES,H5N1 CPE
CN1c2ccccc2C(C)(C)C12CC(CCl)=NO2 (configuration not stated),0.2
CN1CCC2(CC1)Nc1nc(SCc3ccc(Cl)cc3)nn1C1=C2CN(C)CC1,i
O=C(c1cnn2ccccc12)N1CCN(C2CCCCC2)CC1,2.0
Cc1ccc(C(C(=O)NC2CCCC2)N(Cc2cccs2)C(=O)CNC(=O)c2cccs2)o1 (configuration not stated),1.7
CC(=O)[C@@H]1[C@@H]2C(=O)N(Cc3ccccc3)C(=O)[C@@H]2C2c3ccccc3C=CN21 (some centres not stated),i
Cc1ccc(N/N=C2/CCCNC2=O)cc1,i
CCOc1ccc(CNC(=O)NS(=O)(=O)c2ccc(OC)cc2)cc1,0.1
CCN(CC)c1cc(C)c2cc(NC(=O)CNC(C)=O)ccc2n1,i
O=C(O)C1CSC(c2ccccc2)N1C(=O)c1ccco1 (configuration not stated),i
CN(NC(=O)c1ccc(Cl)cc1)c1cccc(Cl)n1,i
Cc1ccc(OCc2nnc(SCc3nc4ccccc4[nH]3)n2Cc2ccco2)cc1,i
O=C1C=C(NCc2ccncc2)CC(c2ccccc2)C1 (configuration not stated),i
CC(=O)Nc1cccc(NC(=O)c2c(-c3ccccc3Cl)noc2C)c1,i
c1ccc2c(c1)nc(CN1CCOCC1)n1c3ccccc3nc21,1.0
Cc1cc2cc(C)c3nnc(SCC(=O)NCc4ccco4)n3c2cc1C,2.5
COCCNC(=O)CSc1nc2cc(OC)c(OC)cc2c(=O)n1Cc1ccc(OC)cc1,i
O=C(Cc1nc2ccccc2s1)c1ccc(O)cc1O,i
c1ccc(-c2nnc(CSc3nc4ccccc4[nH]3)o2)cc1,0.9
O=C(Nc1cccc(F)c1)c1ccc2c(c1)OCO2,0.6
Cc1ccc(NC(=O)Nc2ccccc2C(=O)NCc2ccccc2)cc1,1.7
COc1ccccc1CNc1nc2nc(C)cc(=O)n2[nH]1,0.2
CC1=C(C(=O)Nc2ccccc2)C(c2ccc(C)o2)n2ncnc2N1 (configuration not stated),i
COc1ccc(N(C)S(=O)(=O)c2ccc3c(c2)CCC(=O)N3)cc1,i
CCN(c1ccccc1)S(=O)(=O)c1ccc(Oc2ccc(-n3ccnc3)cc2)nc1,i
CCOC(=O)c1c(NC(=O)c2ccco2)sc2c1CCCC2,i
# The list goes on:
SMILES,H5N1 CPE
O=C(COC(=O)c1cccnc1)c1ccc(Cl)c(Cl)c1,0.5
c1ccc(-n2nnnc2NC2CCCCC2)cc1,0.5
COc1ccc(NC(=O)CN2CCC(C(N)=O)CC2)cc1,i
O=C(Cc1cn2ccsc2n1)Nc1cccc2cnccc12,0.8
COc1ccc(OC)c(NC(=O)CSc2nc3ccccc3c(=O)n2CCNC(C)=O)c1,1.5
CCOC(=O)c1cnc2ccc(OCC)cc2c1N1CCN(c2ccccc2OC)CC1,i
CCCc1c(C)c(C#N)c2nc3ccccc3n2c1NCCCN1CCOCC1,2.4
CCOC(=O)COc1ccc(S(=O)(=O)NCc2ccco2)cc1,i
CN1C(=O)C2CN(CCc3ccccc3)CNC2N(C)C1=O (configuration not stated),0.5
CC(=O)COC(=O)CNC(=O)c1ccc(Br)cc1,0.2

# Reformatted: results already given
molecule | H5N1 CPE
COCCNC(=O)CSc1nc2cc(OC)c(OC)cc2c(=O)n1Cc1ccc(OC)cc1 | i
O=C(Cc1nc2ccccc2s1)c1ccc(O)cc1O | i
c1ccc(-c2nnc(CSc3nc4ccccc4[nH]3)o2)cc1 | 0.9
O=C(Nc1cccc(F)c1)c1ccc2c(c1)OCO2 | 0.6
Cc1ccc(NC(=O)Nc2ccccc2C(=O)NCc2ccccc2)cc1 | 1.7
COc1ccccc1CNc1nc2nc(C)cc(=O)n2[nH]1 | 0.2
CC1=C(C(=O)Nc2ccccc2)C(c2ccc(C)o2)n2ncnc2N1 (configuration not stated) | i
COc1ccc(N(C)S(=O)(=O)c2ccc3c(c2)CCC(=O)N3)cc1 | i
CCN(c1ccccc1)S(=O)(=O)c1ccc(Oc2ccc(-n3ccnc3)cc2)nc1 | i
CCOC(=O)c1c(NC(=O)c2ccco2)sc2c1CCCC2 | i
O=C(COC(=O)c1cccnc1)c1ccc(Cl)c(Cl)c1 | 0.5
c1ccc(-n2nnnc2NC2CCCCC2)cc1 | 0.5
COc1ccc(NC(=O)CN2CCC(C(N)=O)CC2)cc1 | i
O=C(Cc1cn2ccsc2n1)Nc1cccc2cnccc12 | 0.8
COc1ccc(OC)c(NC(=O)CSc2nc3ccccc3c(=O)n2CCNC(C)=O)c1 | 1.5
CCOC(=O)c1cnc2ccc(OCC)cc2c1N1CCN(c2ccccc2OC)CC1 | i
CCCc1c(C)c(C#N)c2nc3ccccc3n2c1NCCCN1CCOCC1 | 2.4
CCOC(=O)COc1ccc(S(=O)(=O)NCc2ccco2)cc1 | i
CN1C(=O)C2CN(CCc3ccccc3)CNC2N(C)C1=O (configuration not stated) | 0.5

# An excerpt (hit frequency here may not be typical).
